# TSHR ag – qHTS Assay for Agonists of the Thyroid Stimulating Hormone Receptor; Thyrotropin receptor (Homo sapiens), P16473; HEK293-CNG-TSHR cells (CNG channel as cAMP sensor), membrane potential dye, cAMP; Potency, µM (highest dose often 57.1 µM), without a hit: at the highest dose activation, usual class: activators; 73,000 compounds, 0.48% hits; active = well fitted activation curve of enough size with the parental cells flat; inconclusive = any curve in the parental cells; inactive = parental cells flat and receptor cells flat or falling; note: potency is the fitted concentration of half-maximal effect; % of control where 0% means no effect; weak receptor curves with flat parental cells got no call and are not listed
# Target sequence (P16473 whole entry, looked up): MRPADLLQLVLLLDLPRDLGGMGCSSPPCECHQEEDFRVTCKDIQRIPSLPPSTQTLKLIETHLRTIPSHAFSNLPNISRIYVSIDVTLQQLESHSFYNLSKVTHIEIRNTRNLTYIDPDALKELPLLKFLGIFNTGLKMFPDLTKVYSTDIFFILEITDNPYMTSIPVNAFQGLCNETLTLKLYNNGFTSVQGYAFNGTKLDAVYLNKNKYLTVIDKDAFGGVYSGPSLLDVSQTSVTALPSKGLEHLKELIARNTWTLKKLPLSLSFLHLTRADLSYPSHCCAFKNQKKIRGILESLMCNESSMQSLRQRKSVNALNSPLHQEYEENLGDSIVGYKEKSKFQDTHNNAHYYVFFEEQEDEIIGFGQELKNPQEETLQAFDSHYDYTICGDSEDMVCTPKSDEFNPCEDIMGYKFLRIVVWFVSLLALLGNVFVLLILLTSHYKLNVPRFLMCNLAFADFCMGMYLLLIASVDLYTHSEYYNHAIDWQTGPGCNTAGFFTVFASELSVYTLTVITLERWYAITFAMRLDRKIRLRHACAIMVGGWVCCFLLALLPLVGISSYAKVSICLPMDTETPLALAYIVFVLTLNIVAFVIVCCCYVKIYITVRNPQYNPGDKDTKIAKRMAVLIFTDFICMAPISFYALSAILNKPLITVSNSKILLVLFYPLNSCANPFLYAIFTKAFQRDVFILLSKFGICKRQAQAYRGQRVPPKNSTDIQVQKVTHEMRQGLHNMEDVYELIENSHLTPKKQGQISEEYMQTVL
#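 HEK 293 cells stably expressing TSHR and a modified CNG channel, with CNG-only parental cells as counterscreen, were preloaded 60 min at room temperature with membrane potential dye containing 100 uM RO 20-1724. Compound exposure was 30 min, and depolarization was read as fluorescence at 590 nm.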
# Resorufin fluor – qHTS Assay for Spectroscopic Profiling in Resorufin Spectral Region; Compound fluorescence, resorufin region 547/598 nm, buffer; hits give high values; max dye-equivalent concentration, M; 59,000 compounds, 0.04% hits; AID 588, 2007; active = above 10 nM dye equivalent; inconclusive = 1 to 10 nM; inactive = 1 nM or less; a few of its hits are not listed in these tables; note: highest value over a series up to 38 µM
#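 Compounds in 100 mM Tris buffer, pH 8.0, incubated 15 min at room temperature, then read with 547 nm excitation and 598 nm emission filters. Fluorescence was converted to dye-equivalent concentration using an on-plate six-point resorufin standard curve.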
# A647 autofl – qHTS Assay for Spectroscopic Profiling in A647 Spectral Region; Compound fluorescence, A647 channel (570/671 nm), Tris buffer; max dye-equivalent concentration, M; 59,000 tested, under 10 active; AID 592, 2007; active means above 1 µM dye equivalent; inconclusive means 0.1 to 1 µM; inactive means 0.1 µM or less;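 note: values scaled relative to a standard on each plate; highest value over a series up to 38 µM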
#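 Spectral profiling of library compounds in pH 8.0 Tris: 15 min room-temperature incubation, single ex/em pair (570/671 nm), response normalized to Alexa 647 equivalents.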
# A488 fluor – qHTS Assay for Spectroscopic Profiling in A488 Spectral Region; compound autofluorescence, A488 spectral region, dye equivalency; hits give high values; max dye equivalency, M; 59,000 compounds, 0.1% hits; AID 591, 2007; active = above 10 nM dye equivalent; inconclusive = 1 to 10 nM; inactive = 1 nM or less; about half of its hits are not listed in these tables;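 note: highest value over a series up to 38 µM; compound alone in buffer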
#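 Compounds pin-transferred into 100 mM Tris buffer, pH 8.0, incubated 15 min at room temperature, then imaged with 480 nm excitation/540 nm emission filters. Fluorescence converted to Alexa 488 dye-equivalent concentration via an on-plate six-point A488 standard curve.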
# AID923 – qHTS Assay for Allosteric/Competitive Inhibitors of Caspase-1: Spectroscopic Profiling in AFC Spectral Region. Potency, µM (doses to about 57.5 µM), inactives show at the highest dose fluorescence increase, hits mostly activators. 75,000 compounds, 1.1% hits. compound fluorescence, AFC spectral region (405/520 nm); almost no hit is shown here; active = well fitted activation curve with a large enough effect; inconclusive = small, poorly fitted or top-dose-only effect;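 note: potency is the fitted concentration of half-maximal effect; 0% is about no effect; scaled to a free AFC standard on each plate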
#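 Compound autofluorescence profiled at 405 nm ex/520 nm em during kinetic caspase 1 run (50 nM enzyme, 5 uM Ac-WEHD-AFC, HEPES pH 7.5, 10 mM DTT). Titration up to 57 uM; baseline from regression intercept, normalized to AFC standard curve.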
# Starred values were filed as active, the others as inactive; i = inactive; ? = inconclusive; · = not tested or not shown; & = joins results of further samples; [ ] = dose if it differs, or a comment.
# Preview:
SMILES,TSHR ag,Resorufin fluor,A647 autofl,A488 fluor,AID923
O=C(O)C(Cc1ccccc1)Cc1ccccc1,11%[11.4 µM],i,4.9e-09,i,-1.1%[11.5 µM]
CCOc1cc(OCC)c(C(C)=O)cc1OCC,?,·,·,·,2.4%
Cc1ccc(NC(=O)COc2ccc(/C(N)=N/O)cc2)cc1C,3%,i,1.9e-08,i,-0.1%

# Main list, from the start:
SMILES,TSHR ag,Resorufin fluor,A647 autofl,A488 fluor,AID923
O=C(O)C(Cc1ccccc1)Cc1ccccc1,11%[11.4 µM],i,4.9e-09,i,-1.1%[11.5 µM]
CCOc1cc(OCC)c(C(C)=O)cc1OCC,?,·,·,·,2.4%
Cc1ccc(NC(=O)COc2ccc(/C(N)=N/O)cc2)cc1C,3%,i,1.9e-08,i,-0.1%
CC(=O)Nc1ccc(OC(=O)CC2SC(=O)NC2=O)cc1 (configuration not stated),·,i,1e-09,i,·
O=C(Nc1nccs1)NC(C(F)(F)F)C(F)(F)F,·,i,5.8e-08,i,·
CCC(c1nnnn1Cc1ccccc1)N(Cc1cc2cc(OC)ccc2[nH]c1=O)CC1CCCO1 (configuration not stated),?,i,2.8e-09,i,5.5%
COc1ccccc1N1CCN(CCCCN2C(=O)CCC2=O)CC1,1%,·,·,·,-1.4%
Cc1cc(NC(=O)CCC(=O)N(CC2CCCO2)C(C(=O)NC2CCCC2)c2ccccc2C)no1 (configuration not stated),6%,i,2.5e-08,i,-0.4%
COC(=O)c1ccccc1NC(=O)CSc1nc(NC(=O)c2ccccc2)c2c(C)c(C)oc2n1,?,i,8.8e-08,i,0.8%
CSc1ccc(S(=O)(=O)N2CCCC2)cc1,·,i,5.3e-09,i,-1.0%
O=C(/C(=N/O)c1ccccc1)c1ccccc1,29%,·,·,·,-0.6%
Cc1cc(C)nc(N2CCC(C(=O)NC3CCCCCC3)CC2)n1,?,i,1e-09,i,1.1%
O=C(NC1CCCCC1)C(c1ccccc1F)N(Cc1ccco1)C(=O)Cn1nnc2ccccc21 (configuration not stated),?,i,1e-09,i,0.1%
COC(=O)[C@@]1(Cc2ccc(OC)cc2)[C@H]2c3cc(C(=O)N4CCCC4)n(Cc4ccc(C(F)(F)F)nc4)c3C[C@H]2CN1C(=O)c1ccccc1,?,·,·,·,0.3%
Cc1cc(=O)oc2cc(OCC(=O)OCc3nnc(-c4ccccc4)o3)ccc12,6%,i,1.3e-08,i,-0.1%
COc1ccccc1N1CCN(C(=O)C2CCN(S(=O)(=O)c3ccc(Cl)cc3)CC2)CC1,-2%,·,·,·,2.0%
O=C1C2CC=CCC2C(=O)N1c1nc2n(n1)C(c1ccccc1)CC(c1ccccc1)N2 (configuration not stated),-4%,i,4.5e-09,i,-0.8%
O=C(CSc1ncn[nH]1)c1ccccc1,6%,i,3.7e-09,i,-0.1%
O=C(CCn1c(=S)[nH]c2cc3c(cc2c1=O)OCO3)N1CCN(c2ccccn2)CC1,4%,i,1e-09,i,-0.7%
Cn1nnc(NC(=O)c2cccc(OCc3ccccc3)c2)n1,·,i,2.4e-08,i,-1.7%
Cn1nc(C(=O)Nc2c(-c3ccccc3)nc3sccn23)c2ccccc2c1=O,13%,i,1e-09,i,-1.2%
C=CCn1c(SCC(=O)Nc2cccc(OC)c2)nnc1-c1cccnc1,1%,·,·,·,7.0%
Cc1sc2nc(SCC(=O)N3CCOCC3)[nH]c(=O)c2c1C,0%,·,·,·,3.7%
CCOC(=O)C1=C(CSc2nc3c(cc2C#N)CN(C)CC3)OC(N)=C(C#N)C1c1ccccc1 (configuration not stated),·,i,1e-09,i,·
Cc1cc2ncn(-c3nnnn3-c3ccccc3)c2cc1C,2%,i,3e-08,i,0.8%

# Next structures follow:
SMILES,TSHR ag,Resorufin fluor,A647 autofl,A488 fluor,AID923
CCc1ccc(S(=O)(=O)NCc2csc(-c3cccnc3)n2)s1,?,·,·,·,-2.4%
CCOc1ccc(-n2c(=O)c3c4c(sc3n(CC(=O)NCc3ccco3)c2=O)CCC4)cc1,0%,i,1e-09,i,-0.5%
CC(C)(C)C(=O)Nc1ccccc1N1CCN(C(=O)c2ccc(Cl)cc2)CC1,?,i,9.8e-09,i,-0.1%
CCOc1ccc2c(C)c(C(=O)O)oc2c1OCC,16%,i,6.1e-09,i,1.0%
CC(=O)N[C@H](c1ccccc1)[C@@]1(C)C[C@@H]1[C@@H](C)C(=O)Nc1ccc2ccccc2c1,15%,·,·,·,-0.5%
Cc1ccc(CNC(=O)Nc2ccccc2)cc1,-16%,i,1e-09,i,-0.2%
CCOC(=O)c1ccc(NC(=O)CSc2nc(SC)ns2)cc1,?,i,4.4e-09,i,-1.1%
COc1ccc(S(=O)(=O)NC(CC(=O)NCCc2ccc(OC)c(OC)c2)c2ccco2)cc1 (configuration not stated),16%,i,2.1e-08,i,-1.5%
CCn1c(-c2ccccc2O)n[nH]c1=S,-10%,·,·,·,0.4%
Fc1ccc2nc(Nc3nc4c(s3)CCCC4)sc2c1,-12%,i,3.4e-08,i,5.4%
COC(=O)c1cc2ccsc2n1Cc1cc(=O)n2ccccc2n1,?,i,2.1e-08,i,0.7%
COC(=O)c1cc(NC(=O)CSc2nnc(CN3CCOCC3)n2C)ccc1Cl,7%,i,1.8e-09,i,3.6%
O=C(O)/C=C\C=C/c1ccc2c(c1)OCO2,1%[11.4 µM],i,1e-09,i,1.6%[11.5 µM]
COc1ccc(-c2nnc(SC3CCOC3=O)n2C2CCCCC2)cc1OC (configuration not stated),3%,i,1.6e-08,i,1.6%
COc1ccc(NC(=O)C2CCCN2C(=O)NCc2ccccc2)c(OC)c1 (configuration not stated),2%,i,1e-09,i,-0.4%
CCC(C)N1CC23C=CC(O2)C(C(=O)OC)C3C1=O (configuration not stated),0%,·,·,·,-0.4%
COc1ccc(NC(=O)CSc2nnc(COc3ccccc3)n2Cc2ccco2)cc1OC,?,i,1.6e-08,i,1.3%
CCCCn1c(NCCC)nc2c1c(=O)[nH]c(=O)n2C,-7%,i,2.9e-08,i,-0.2%
CC(C)COc1ccc(C(=O)CCN2CCCCC2)cc1,?,i,1e-09,i,0.7%
O=C(CSc1nnc(-c2ccc(OC(F)F)cc2)o1)NC(=O)NCc1ccco1,10%,i,4.2e-08,i,1.7%
O=C1CC(c2ccccc2)n2ncnc2N1 (configuration not stated),-3%,i,5e-09,i,-0.7%
COC(C)(C)[C@]12CC(O)(C(C)C)ON1[C@H]1CCCCC1N2O (some centres not stated),0%,i,5.7e-09,i,-1.3%
Cc1c(NC2=C(Cl)C(=O)N(c3ccccc3)C2=O)c(=O)n(-c2ccccc2)n1C,?,·,·,·,2.7%
CO[C@@H]1COC(=O)[C@H](Cc2ccccc2)NC(=O)C/C=C\[C@@H](C)[C@H](OC)COC(=O)[C@@H](C)NC(=O)C/C=C\[C@H]1C,-4%&-6%[11.4 µM],·,·,·,-1.2%&0.7%[11.5 µM]
O=C(CN(C1CCCCC1)S(=O)(=O)c1ccc(Cl)cc1)NCCCO,9%,·,·,·,-1.6%

# (further entries)
SMILES,TSHR ag,Resorufin fluor,A647 autofl,A488 fluor,AID923
Cc1cc(NS(=O)(=O)c2ccc(NC(=O)COc3ccc(Cl)cc3)cc2)no1,-6%,i,1.7e-08,i,1.4%
CCn1cc(S(=O)(=O)CC(=O)Nc2ccc3c(c2)OCCO3)c2ccccc21,0%,i,1e-09,i,1.1%
COCCNC(=O)CN(C(=O)CCC(=O)Nc1cc(C)on1)c1cccc(C)c1C,-4%,i,1.5e-08,i,-1.0%
CCCCC(OC(=O)c1cc2occc2n1C)C(=O)NCC1CCCO1 (configuration not stated),10%,i,3.9e-08,i,1.2%
COc1cc2nc(NC(=O)c3ccc(Cl)cc3)[nH]c(=O)c2cc1OC,1%,i,1e-09,i,1.5%
Cc1cc(C)cc(N2CCCn3c2nc2c3c(=O)n(CCN3CCOCC3)c(=O)n2C)c1,-13%,i,1e-09,i,0.0%
CCOC(=O)c1cnc(SCC(=O)NCc2ccco2)nc1N,-2%,i,3.1e-09,i,-0.6%
O=C(Nc1ccc(Cl)c(Cl)c1)N1CCC(N2CCCCC2)CC1,-2%[11.4 µM],i,4.2e-08,i,-0.8%
Cc1ccc(Cl)cc1N1CCN(C(=O)CCS(=O)(=O)c2cccc3nonc23)CC1,?,i,2.2e-08,i,0.8%
O=C(NCCN1CCOCC1)c1cc2ccccc2[nH]1,12%,i,4e-08,i,0.8%
CC(=O)N1CN(Cc2ccccn2)Cc2c1sc1c2CCCC1,6%,i,2.6e-08,i,20%
CN=C1c2c(-c3ccccc3)c3cc(OC)ccc3n2CCN1C,·,i,3e-08,i,·
CCOc1ccc(NC(=O)CCN2CCCCC2)cc1,?,i,3.7e-08,i,-0.1%
O=C(Nc1cccc2ccccc12)c1cnccn1,5%,i,1.2e-08,i,-0.1%
CN(C)Cc1ccccc1-c1nccc(NC2CC2)n1,13%,i,3.6e-09,i,2.0%
CC12CN3CCN(CC(C3)C1(O)CN1CCCCC1)C2 (configuration not stated),?,·,·,·,-2.8%
CC(=O)N1CCc2cc(S(=O)(=O)CCC(=O)Nc3c(C)n(C)n(-c4ccccc4)c3=O)ccc21,3%,i,1e-09,i,-0.2%
Nc1ccc(S(=O)(=O)Nc2ccc(S(N)(=O)=O)cc2)cc1,-2%,i,3.1e-08,i,0.5%
CCOC(=O)c1cc(NC(=O)C2CCCO2)cc(C(=O)OCC)c1 (configuration not stated),-2%,i,5.9e-09,i,-0.6%
CCCCc1c(O)nc(SCCN(C)C)n(-c2ccccc2)c1=O,·,i,5.3e-09,i,·
COc1ccccc1S(=O)(=O)Cc1ccc(C(=O)NCc2cccs2)o1,11%,i,1e-09,i,-2.9%
CC(O)c1n(C)c(Cl)c[n+]1C (configuration not stated),·,i,1e-09,i,·
CN1CCCC(OC(=O)CCCC(=O)OC2CCCN(C)C2)C1 (configuration not stated),-2%,i,1e-09,i,0.6%
CCCNC(=O)NC(=O)CN1C(=O)NC(C)(c2ccc(C)cc2)C1=O (configuration not stated),-2%,i,1e-09,i,0.4%
CCc1cc2c(=O)n(N)c(CCC(=O)O)nc2s1,-1%,·,·,·,-0.5%

# Reprinted from the part before: two entries, then new ones.
SMILES,TSHR ag,Resorufin fluor,A647 autofl,A488 fluor,AID923
CCCNC(=O)NC(=O)CN1C(=O)NC(C)(c2ccc(C)cc2)C1=O (configuration not stated),-2%,i,1e-09,i,0.4%
CCc1cc2c(=O)n(N)c(CCC(=O)O)nc2s1,-1%,·,·,·,-0.5%
COc1ccc(-n2c(C)nc3c(cnn3-c3ccccc3)c2=O)cc1,?,i,4.3e-09,i,-0.4%
OC[C@@H]1O[C@@H](n2cnc3c(SCc4ccccc4)ncnc32)[C@@H](O)[C@H]1O,0%[11.4 µM],i,3.8e-09,i,-0.1%[11.5 µM]
COc1ccc(OC)c(NC(=O)Nc2nnc(N3CCC(C)CC3)s2)c1,-11%,·,·,·,-2.3%
COc1ccc(Nc2nc3c(c(=O)n(C)c(=O)n3C)n2CCO)cc1,?,i,1e-09,i,4.9%
Cn1c(SCC(=O)c2ccccc2F)nnc1C1CC1,-1%,i,9.8e-09,i,-0.8%
CCC1=NC(c2ccc(OC)cc2OC)N(O)C1(C)C (configuration not stated),-1%,i,3.2e-08,i,-3.0%
CC(=NC1CCN(Cc2ccccc2)CC1)c1c(O)[nH]c(=O)[nH]c1=O,12%,i,1e-09,i,3.1%
O=C(NCc1cccs1)c1cccc(S(=O)(=O)N2CCCCC2)c1,2%,i,2.9e-08,i,-1.1%
Cn1c(=O)c2c(SCC(=O)c3ccccc3)nc(C3CC3)nc2n(C)c1=O,1%,·,·,·,-0.7%

# A portion of the library; rates above refer to the full screens.
